# CtBP-E1A blk: qHTS Assay for Inhibitors of the CtBP/E1A Interaction; CtBP / adenovirus E1A interaction (AlphaScreen); AlphaScreen GST-E1A/His-CtBP binding, 1536-well; active compounds read low; control for the full effect not named in the record; activity change, % (test concentration not listed); 340,000 tested, 0.49% active; AID 651724, 2012; in the data active means activity change below about -65%; inconclusive means about -30% to -65%; inactive means above about -30%; note: % is set by controls: 0 for no effect and ±100 for the full control effect
#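 In 5 uL wells, 23 nL compound meets equimolar GST-E1A and His-CtBP (5X stock 125 nM each) for 2 h, 37 °C. Beads (5X, 50 ug/mL) then 1 h, 37 °C, dark.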
# TRPML1 inh: qHTS for Inhibitors of the Human Mucolipin Transient Receptor Potential 1 (TRPML1); Mucolipin-1 (Homo sapiens), Q9GZU1; TRPML1-inducible cells, Ca2+ dye fluorescence, FDSS; active compounds read low; inhibition of EC80 agonist-evoked calcium signal; activity change, negative = inhibition, % (test concentration not listed); 390,000 tested, 0.02% active; in the data active means activity change below about -50%; inconclusive means about -30% to -50%; inactive means above about -30%;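 note: stimulus is agonist 54-4 at its EC80 concentration; % is set by controls: 0 for no effect and ±100 for the full control effect; compound concentration not given in the record; the text of the record puts the active cut at -80%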
# Target sequence (Q9GZU1 whole entry, looked up): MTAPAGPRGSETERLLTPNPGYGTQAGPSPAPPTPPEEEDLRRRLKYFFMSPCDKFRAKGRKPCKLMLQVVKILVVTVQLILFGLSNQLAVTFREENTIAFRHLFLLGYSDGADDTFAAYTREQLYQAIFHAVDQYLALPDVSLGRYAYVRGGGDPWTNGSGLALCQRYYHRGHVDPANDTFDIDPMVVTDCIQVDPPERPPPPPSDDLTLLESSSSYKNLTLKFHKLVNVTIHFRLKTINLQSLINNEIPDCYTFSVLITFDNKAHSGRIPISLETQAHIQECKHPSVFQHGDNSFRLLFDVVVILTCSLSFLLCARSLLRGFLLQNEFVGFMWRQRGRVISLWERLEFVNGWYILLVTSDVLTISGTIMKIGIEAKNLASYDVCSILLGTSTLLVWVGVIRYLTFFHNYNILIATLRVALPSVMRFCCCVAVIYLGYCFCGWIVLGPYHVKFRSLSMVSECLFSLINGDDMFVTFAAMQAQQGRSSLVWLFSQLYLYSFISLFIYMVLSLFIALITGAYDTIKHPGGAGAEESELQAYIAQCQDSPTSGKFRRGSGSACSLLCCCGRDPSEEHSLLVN
#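 TRPML1-DL cells, Tet-induced overnight (~16 h, 37 °C) at 1,500 cells/well, were loaded with Ca8 no-wash dye plus quencher for 45-90 min at room temperature. Compounds were pinned during FDSS kinetic reading; agonist 54-4 at EC80 (4 uM final) then added.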
# Six1-Eya2 blk: qHTS Assay for Inhibitors of the Six1/Eya2 Interaction; AlphaScreen GST-Six1/His-Eya2 binding, biochemical; active compounds read low; control for the full effect not named in the record; activity change, % (concentration not given with the values); Homeobox protein SIX1 (Homo sapiens) + Protein phosphatase EYA2 (Homo sapiens), …; 360,000 tested, 0.56% active; in the data active = activity change below about -65%; inconclusive = about -30% to -65%; inactive = above about -30%; note: % is set by controls: 0 for no effect and ±100 for the full control effect
#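 GST-Six1 + His-Eya2 (5X stock: 250/500 nM); Tris pH 8.0, 300 mM NaCl, 0.05% BSA, 0.02% Tween 20; GSH donor/Ni acceptor beads; 1 h 37 °C dark; AlphaScreen readout.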
# D2 agonist: Beta-Arrestin HTS for Positive Allosteric Modulators of the Human D2 Dopamine Receptor: Agonists | DiscoveRx PathHunter D2 beta-arrestin, luminescence, 90 min; 100% = 57 uM dopamine signal | activation, % (concentration not given with the values) | 360,000 tested, 0.084% active | AID 624465, 2012; in the data active = activation above about 40%; inconclusive = about 15% to 40%; inactive = below about 15%; note: compound concentration not given in the record; the text of the record calls up to 30% inactive
# Target sequence (P14416 whole entry, looked up): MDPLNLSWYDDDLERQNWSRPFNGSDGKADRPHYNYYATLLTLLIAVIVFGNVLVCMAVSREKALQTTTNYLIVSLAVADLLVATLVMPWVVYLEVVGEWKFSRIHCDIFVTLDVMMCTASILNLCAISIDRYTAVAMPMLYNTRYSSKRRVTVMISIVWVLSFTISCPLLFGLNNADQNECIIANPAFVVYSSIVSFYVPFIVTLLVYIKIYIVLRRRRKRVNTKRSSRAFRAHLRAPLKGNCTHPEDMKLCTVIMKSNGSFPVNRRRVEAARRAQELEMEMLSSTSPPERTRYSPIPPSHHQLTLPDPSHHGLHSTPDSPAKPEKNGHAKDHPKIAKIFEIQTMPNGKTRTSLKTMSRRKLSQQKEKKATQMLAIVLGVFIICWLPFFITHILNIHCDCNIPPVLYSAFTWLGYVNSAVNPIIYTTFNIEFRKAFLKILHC
#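 DiscoveRx PathHunter D2 beta-arrestin cells (2,100/well) attached overnight, then compound-stimulated 90 min at 37 C in HBSS/10 mM HEPES/0.1% Tween-20 buffer; beta-galactosidase complementation read by luminescence after 1 h at ambient temperature. Dopamine 57 uM final (EC100) as control.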
# TRPML1 agonist: qHTS for Agonists of the Human Mucolipin Transient Receptor Potential 1 (TRPML1). Mucolipin-1 (Homo sapiens), Q9GZU1. TRPML1-expressing cells, Ca2+ dye fluorescence, FDSS; host cell line not named in the record; reference of the full effect not given here. activation, % (concentration not given with the values). 410,000 tested, 0.12% active. AID 624414, 2012; in the data active = activation above about 50%; inconclusive = about 30% to 50%; inactive = below about 30%; note: 0% is about no effect; the text of the record puts the active cut at 80%
#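 Cells: TRPML1-DL, 1X Tet inducer, ~16 h at 37 degrees C/5% CO2. Dye: ABD Ca8 no-wash + quencher, 45-90 min RT. Read: 10 s baseline, compound add, 110 s agonist phase; 54-4 EC80 (4uM final), 110 s antagonist phase.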
# PINK1 modulator: A Quantitative High throughput Screen to Identify Chemical Modulators of PINK1 Expression; PINK1 immunofluorescence, high-content cytometry, 24 h; Potency, µM (top dose mostly 76.6 µM), for the others: at the top dose activation (PINK1 increase), usual class: activators; 410,000 tested, 0.2% active; AID 624263, 2012; active = well fitted activation curve with a large enough effect; inconclusive = small, poorly fitted or top-dose-only effect; inactive = flat fitted curve, though single readings scatter; cell line not stated here;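 note: potency is the fitted concentration of half-maximal effect; % of control where 0% means no effect; nearly all actives have a fitted effect of over 65% in size; a mitochondrial uncoupler was the plate control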
#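 Cells are seeded, rested 12 hours, then given compound at five concentrations or DMSO for 24 hours. After fixation, blocking and antibody staining, PINK1 amount and mitochondrial localization are scored; CCCP serves as control.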
# * marks the source's active call; other numbers are inactive results; ? = inconclusive; / = no result given; & = joins results of further samples.
# Each structure is followed by: PINK1 modulator	CtBP-E1A blk	D2 agonist	TRPML1 inh	TRPML1 agonist	Six1-Eya2 blk
- CCCOc1c(Br)cc(C2C3=C(CCCC3=O)N(C)C3=C2C(=O)CCC3)cc1OC
 : 3.5%	1	-4.9	-8	2.0	15
- O=C(C1CCCCC1)N1C[C@H](n2cc(C3CC3)nn2)[C@@H](O)C[C@@H]1c1ccc(Cl)cc1
 : 0.3%	5	-12	2	-0.3	6
- Cc1cc(C)c2c(n1)sc1c(O)cc(=O)[nH]c12
 : 5.5%	-15	0.2	8	0.1	-71*
- COC(=O)C1=C(C)NC(=S)NC1c1ccc(-c2cc(Cl)ccc2Cl)o1 (centres undefined)
 : 17%	-8	-3.2	-2	2.7	-12
- Cc1ccc(C)c(Cn2c(=O)n(-c3ccccc3)c(=O)c3c4c(sc32)CCCC4)c1
 : 0.4%	/	/	9	0.0	/
- CSc1ccc(C(=O)C2CCCN(C(=O)c3ccc(C)nc3)C2)cc1 (centres undefined)
 : -2.4%	/	1.2	-5	0.6	5
- O=C(/C=C/c1ccccc1[N+](=O)[O-])Nc1cccc(S(=O)(=O)NC2=NCCCCC2)c1
 : -0.1%	-29	0.9	-4	-0.7	4
- O=C(CN(CCc1ccccc1)Cc1ccccc1)Oc1ccccc1P(=O)(O)O
 : 5.5%	-3	-4.9	-13	-0.1	7
- CCOc1ccc(S(=O)(=O)NCCCN2CCOCC2)c2ccccc12
 : -2.1%	-1	-2.7	15	0.0	-1
- Cc1ccc(N=C/C(C(=O)C(F)(F)F)=C(\O)c2ccco2)cc1Cl
 : 4.5%	-23	-2.4	12	1.0	-9
- O=C(CN1CCN(C(c2ccccc2)c2ccccc2)CC1)Nc1ccc(N2CCOCC2)cc1
 : 1.0%	5	-1.3	-16	0.1	11
- CC(C)NC(=O)c1ccc(Cn2c(=O)c3cccn3c3cccnc32)cc1
 : 2.2%	/	/	3	0.4	/
- CCn1ncc(CN2CCN(C(=O)Nc3ccccc3C(=O)OC)CC2)c1C
 : -2.7%	-2	-2.0	-4	-0.6	-1
- COc1ccc(S(=O)(=O)N(Cc2nc(-c3ccccc3)no2)C2CCCCC2)cc1
 : -0.1%	/	/	44	1.9	/
- COc1ccc(OC)c(-c2nn(-c3ccccc3)cc2C(=O)N2CCc3ccccc3C2)c1
 : 0.1%	-14	5.1	45	3.1	-16
- CCOc1ccc(NC(=O)C23CC4CC(C2)CC(c2ccccc2)(C4)C3)cc1
 : 1.1%	7	-2.7	28	-0.1	-4
- COc1ccccc1NC(=O)C1CCCN(c2ncnc3c2nc2n3CCCCC2)C1 (centres undefined)
 : -0.1%	-12	-0.8	-11	1.2	-4
- OC(c1cc(-c2ccc(C(F)(F)F)cc2)nc(C(F)(F)F)c1)C1CCCCN1 (centres undefined)
 : -1.5%	/	?	-6	-0.2	9
- Cn1c(O)c(N=NC(=O)c2ccco2)c2ccccc21
 : -0.3%	-13	1.1	15	0.6	-20
- CCN(CC)CCNc1ncnc2c1cnn2-c1cc(Cl)ccc1C
 : 4.9%	/	/	-5	-0.8	/
- Cc1nc2nc(SCC(=O)Nc3cccc(Cl)c3)nn2c(C)c1Cc1ccccc1
 : -0.2%	/	/	11	0.3	/
- CCC(CC)NC(=O)c1nn(Cc2ccccc2)c(=O)c2ccccc12
 : 7.0%	7	3.0	17	4.5	-2
- Cc1c(C(=O)Oc2ccc(-c3cnc4ccccc4n3)cc2)cccc1[N+](=O)[O-]
 : 1.7%	-1	-2.7	29	-0.8	-9
- O=C(NCCCNC(=O)c1ccc(-c2cccc(Cl)c2)o1)c1cnccn1
 : 0.3%	21	1.9	-12	-0.4	14
- CCN1CCN(CC(O)COCCOc2ccc(Br)cc2)CC1 (centres undefined)
 : 0.3%	1	0.8	35	1.5	1
- OC(c1cccc(Cl)c1)c1nc(-c2cc3ccccc3o2)cs1 (centres undefined)
 : 9.5%	9	3.6	-5	1.1	7
- Cc1ccccc1C(=O)Nc1cccc(NC(=O)c2ccc(C(C)(C)C)cc2)c1
 : 1.5%	/	/	3	1.2	/
- O=C(Nc1ccc(Br)c(Br)c1)C1CCCO1 (centres undefined)
 : 1.0%	-1	-4.6	-13	1.0	2
- Cc1ccc(S(=O)(=O)N2CCC(C(=O)NCC3CCCO3)CC2)cc1 (centres undefined)
 : ?	7	-0.7	5	0.9	1
- O=C(CC1C(=O)NCCN1C(=S)Nc1ccccc1)Nc1ccc(F)cc1 (centres undefined)
 : 4.4%	3	-3.8	-10	-0.1	0
- CC(C)(C)c1nc(S(=O)(=O)c2ccc(Cl)cc2)c(N2CCOCC2)o1
 : 1.1%	3	-1.0	15	0.0	1
- CC(C)(C)c1ccc(C(=O)Nc2cccc(S(=O)(=O)NC3=NCCC3)c2)cc1
 : 3.3%	-23	-2.7	9	0.5	-17
- COc1ccccc1N1CCN(C(=O)C2CCN(S(=O)(=O)c3cnc[nH]3)CC2)CC1
 : 5.6%	/	/	8	-0.7	/
- CCN1CCN(C(=O)C2CCN(C(=O)c3cc4sccc4n3CC)CC2)CC1
 : -0.4%	-2	-5.9	-1	0.2	-4
- NC(=O)NC(c1ccc(Cl)cc1)c1ccccc1Cl (centres undefined)
 : 1.3%	3	1.5	-1	1.2	-3
- COc1ccc(OCC(=O)N2CCN(C(=O)c3ccc(OC)c(OC)c3)CC2)cc1
 : -1.5%	/	/	7	1.0	/
- O=C(Nc1cccc(Cl)c1)c1cnc[nH]1
 : 0.2%&3.8%	2	0.3	-17	0.5	17
- O=C(Nc1ccc(Cl)cn1)c1ccc(COc2ccccc2Br)o1
 : 1.4%	21	3.4	19	2.4	21
- Cc1cccc(C)c1NC(=O)NCc1ccco1
 : 1.0%	/	0.8	-24	-0.2	-4
- CN(CCO)c1ccc(-c2n[nH]c(=O)c3ccccc23)cc1[N+](=O)[O-]
 : -2.1%	-21	-1.8	28	0.0	-2
- CS(=O)(=O)N(CC(=O)Nc1ccccc1)c1cccc(Cl)c1Cl
 : -0.4%	6	-1.2	30	1.1	2
- O=C(CSc1ccc(-c2ccco2)nn1)NC1CCCCC1
 : -0.4%	-4	-5.9	-18	-0.7	1
- CCC(C)NC(=O)CSc1nc2ccccc2c(=O)n1-c1c(C)n(C)n(-c2ccccc2)c1=O (centres undefined)
 : 1.7%	8	-1.1	-5	-1.1	7
- O=C(CCCn1c(=S)[nH]c2cc3c(cc2c1=O)OCO3)N1CCN(c2ccccc2)CC1
 : -0.3%	14	-0.3	-5	1.0	1
- COc1ccc(C(=O)Nc2nncs2)cc1S(=O)(=O)N1CCOCC1
 : -0.1%	-1	-6.2	-1	0.3	15
- Cc1cc2nnc(SCc3ccccc3)n2c(N)n1
 : ?	7	-1.1	-9	-0.1	0
- CC(=O)N1CC(=O)N(c2ccccc2)C1=O
 : -0.3%	/	3.4	/	/	4
- COc1ccc(NC(=O)c2ccc3snnc3c2)cc1
 : 6.4%	-1	-2.2	10	-0.8	0
- CCCNC(=O)CN(C)S(=O)(=O)c1ccc(F)cc1
 : 1.4%	10	-2.5	-1	-0.3	7
- COc1cc2c(c(OC)c1OC)-c1c(cc3c(c1OC)OCO3)C[C@H](C)[C@@](C)(O)C2
 : 0.9%	2	-2.2	-5	-0.5	1

# New compounds follow:
# Each structure is followed by: PINK1 modulator	CtBP-E1A blk	D2 agonist	TRPML1 inh	TRPML1 agonist	Six1-Eya2 blk
- Cc1cc2c(cc1S(=O)(=O)N1CCN(c3ccc(Cl)cc3)CC1)OCCN2C
 : -1.1%	?	0.1	-3	0.2	-17
- Cc1ccc(NC(=O)c2oc3ccc(S(=O)(=O)N4CCOCC4)cc3c2C)c(C)c1
 : 0.3%&2.5%	0	2.1	-2&24	1.2&-0.2	-7
- Cn1c(NC(=O)/C=C/c2ccc(Cl)c(Cl)c2)cc(=O)n(C)c1=O
 : 5.3%	-18	1.0	8	0.0	-1
- COCCCNC(=O)CSc1nc2ccccc2c(=O)n1CCC(=O)NCCc1ccc(OC)c(OC)c1
 : -0.6%	6	-5.6	7	-0.3	2
- CCCCc1ccc(NC(=O)CN2NS(=O)(=O)c3ccccc3C2=O)cc1
 : -0.9%	4	-1.8	-12	2.3	0
- Cc1c(-n2cccc2C=O)cccc1[N+](=O)[O-]
 : -1.0%	1	-1.7	-1	1.3	1
- COc1cccc(C(=O)Nc2cccc3c2ccc2cccn23)c1
 : 8.1%	0	-2.7	8	-0.4	-26
- CCOc1cc(/C=N/Nc2nnc(C)n2N)ccc1O
 : -1.7%	?	?	30	4.0	-3
- CCCOc1ccc(C(F)(F)F)cc1NS(=O)(=O)c1ccc(Cl)nc1
 : ?	14	-2.8	23	1.8	-5
- Cc1ccc(C)c(N2CCN(c3nc4ccccc4c(=O)n3-c3ccc(Cl)cc3)CC2)c1
 : 1.1%	/	/	-14	1.2	/
- COc1ccc(N(C(=O)C(C)C)S(=O)(=O)c2ccc3c(c2)n(C)c(=O)n3C)cc1
 : -0.4%	4	1.5	-1	-0.9	6
- CCc1ccc(-c2nc(CN3CCC(C(=O)N4CCN(c5ccccn5)CC4)CC3)c(C)o2)cc1
 : /	-12	-2.1	19	-0.2	-10
- O=C(COC(=O)c1ccc(Cl)c(S(=O)(=O)NCc2ccccc2)c1)NC1CC1
 : 0.9%	15	-2.3	19	0.7	8
- CC(C)C(=O)N1CCC(CN=Cc2c(O)n(C3CCCCC3)c(=O)n(C3CCCCC3)c2=O)CC1
 : -1.3%	-7	-0.1	6	1.4	-3
- COc1ccc(/C=N/NC(=O)c2ccncc2)cc1[N+](=O)[O-]
 : -0.2%	-8	-2.0	-3	2.1	-2
- CCc1ccc(NC(=O)CSc2nnc3[nH]c(=O)cc(-c4ccccc4)n23)cc1
 : 3.0%	/	/	8	0.4	/
- COc1ccc(N=Cc2oc3ccc4ccccc4c3c2O)cc1
 : 0.2%	4	0.9	-6	18	5
- Cc1cc(O)c2c(C)c(CC(=O)N3CCN(C(=O)C4COc5ccccc5O4)CC3)c(=O)oc2c1 (centres undefined)
 : 0.4%	-13	0.6	5	2.1	-2
- O=C(CN1CCN(S(=O)(=O)c2ccc(Cl)cc2)CC1)Nc1ccc2c(c1)OCO2
 : -2.0%	-7	0.6	40	0.1	-7
- COc1ccc(/C=C2/Sc3ccc(C(=O)N4CCc5ccccc5C4)cc3NC2=O)cc1
 : 5.3%	-8	-2.5	-1	0.3	7
- Cn1c(CN2CCOCC2)nc2cc(NC(=O)COc3ccccc3)ccc21
 : 4.3%	-7	-2.4	-6	-0.3	-12

# Screening data as filed in PubChem BioAssay.

# This is a random part of the collection; overall some 1% were active at least once.
